Mtb growth: Mycobacterium tuberculosis H37Rv growth inhibition, cell based, confirmatory dose response (AID 1949); most inactive calls were filed without a number and no value below 0 was filed; inhibition, % at 10 µg/mL; hits with a dose series show IC50 in µg/mL; actives 1.6% (n = 100,000);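 active means confirmed in a dose series; inconclusive means about 50% or more but not retested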;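 further: bacteria grown 7 days with compound before Alamar blue readout; 0% = untreated bacteria and 100% = reference antibiotic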
* marks the source's active call; other numbers are inactive results; i = inactive; ? = inconclusive.

SMILES | Mtb growth
O=C1c2ccccc2C(=O)N1CC12CC3CC(CC(C3)C1)C2 | i
CCn1c(SCC(=O)Nc2ccc(Oc3ccccc3)cc2)nnc1-c1cccs1 | i
Cc1cc(C(=O)N2CCN(CCc3ccccc3)CC2)no1 | i
COc1cc(NC(=S)NCc2ccccc2Cl)c(OC)cc1Cl | 29.9%
CNCc1ccc(OCc2ccc(Cl)cc2Cl)cc1 | 4.85µg/mL*
c1ccc2c(c1)oc1c(N3CCCCC3)ncnc12 | 4.8%
O=C(CSc1nnc(-c2cccs2)n1CCc1ccccc1)Nc1ccccc1 | i
O=C(Nc1ccc(Cc2ccncc2)cc1)c1ccc2c(c1)OCO2 | i
O=C(Nc1ccncc1)c1cc(Br)cs1 | 0.6%
O=C(N1CCCCC1)C1(c2ccccc2)CCCCC1 | i
COC(=O)CN(c1ccc(Cl)cc1Cl)S(C)(=O)=O | i
CS(=O)(=O)N(CC(=O)NCCSCc1ccccc1Cl)c1ccc(Br)cc1 | i
CC(=O)Nc1ccc(S(=O)(=O)N2CCSCC2)cc1 | i
O=C(COc1ccc(Cl)cc1Br)NCCN1CCOCC1 | i
Cc1ccc(NC(=O)NCCCN2CCCC2=O)cc1 | i
CCCC(=O)Nc1ccc(C(=O)N2CCN(c3cccc(C(F)(F)F)c3)CC2)cc1 | i
O=C(NCc1ccccc1F)c1csc2c1CCCC2 | i
O=C1NC(=O)N(c2ccc(Cl)cc2)C(=O)/C1=C\c1ccoc1 | i
COc1ccc(NC(=O)COc2ccc(Br)cc2C)cc1 | i
Cc1cc(C)c(S(=O)(=O)N2CCC(C(=O)NCc3ccco3)CC2)c(C)c1 | i
CCOc1ccc(N2CC(C(=O)Nc3cccc(C)c3C)CC2=O)cc1 (centres undefined) | i
CCc1ccc(-c2c(C)sc(NC(=O)c3c(F)cccc3F)c2C(=O)OC)cc1 | i
Cc1ccccc1CN(c1ccc(C(=O)O)cc1)S(C)(=O)=O | i
CC1CN(C(=O)C2CCCC2)C(C)CN1C(=O)C1CCCC1 (centres undefined) | i
Cc1ccc(COc2ccc(C(=S)N3CCOCC3)cc2)cc1 | i
C=CCNCCCOc1cccc2ccccc12 | i
Cc1ccc(C(=O)CSc2nnc(C)s2)cc1 | 1.8%
COc1ccc(S(=O)(=O)N2CCC(C(=O)N3CCCCC3)CC2)cc1 | 1.4%
O=Cc1ccc(OC(=O)c2cccs2)c(Cl)c1 | 24.4%
COc1ccc(CCNC(=O)COc2cc(C)c(Br)c(C)c2)cc1 | 4.8%
CC1=C(C(=O)Nc2ccc(C)cc2C)C(c2c(Cl)cccc2Cl)NC(=S)N1 (centres undefined) | i
CCCCc1nnc(SCC(=O)Nc2cccc(C(F)(F)F)c2)n1N | i
COCCNC(=S)N1CCN(c2ccc(OC)cc2)CC1 | i
O=C(NCc1cccc(Cl)c1)C1CCCO1 (centres undefined) | i
NC(=O)c1c(NC(=O)c2ccc(-c3ccccc3)cc2)sc2c1CCC2 | 0.2%
CC(C)(C)NCCCOc1ccc(Cl)cc1Cl | i
COc1cccc(NC(=S)/N=C(\N)Nc2nc(C)c3ccccc3n2)c1 | 21.7%
CCCCOCCCNC(=O)CC(C)c1ccccc1 (centres undefined) | i
CC(NC(=O)C(Cc1ccccc1)N1C(=O)c2ccccc2C1=O)C12CC3CC(CC(C3)C1)C2 (centres undefined) | i
CCOC(=O)c1c(-c2ccc(F)cc2)csc1NC(=O)c1ccc(OC)cc1OC | 2.7%
Cc1ccc(S(=O)(=O)N(CC(=O)Nc2ccc(F)c(Cl)c2)c2ccccc2Cl)cc1 | 2.6%
Cc1ccc(N(C(C)C(=O)N2CCC(C)CC2)S(C)(=O)=O)cc1 (centres undefined) | i
CCCCC(=O)Nc1ccc(C(=O)NCCc2ccccc2)cc1 | 14.6%
CC(=O)C1=C(C)NC(=S)NC1c1ccccc1F (centres undefined) | i
CCOC(=O)c1cnc2c(C)c(Cl)ccc2c1N1CCN(CC)CC1 | i
Cc1ccccc1OCc1nnc(SCc2cccc(Cl)c2)n1C | i
S=c1[nH]nc(-c2ccccc2Br)o1 | 1.8%
Cn1c(=O)c2c(-c3ccccc3)n(-c3ccc(Br)cc3)cc2n(C)c1=O | ?
CCOC(=O)C1CCN(C(=S)Nc2cccc(Cl)c2C)CC1 | 0.7%
CC(C)OCC(O)CS(=O)(=O)Cc1ccccc1 (centres undefined) | 1.2%

An excerpt of these results, as labelled records.
> Cc1ccc(S(=O)(=O)N(CC(=O)Nc2ccc(F)c(Cl)c2)c2ccccc2Cl)cc1
  Mtb growth = 2.6%

> CCOC(=O)C1CCN(C(=S)Nc2cccc(Cl)c2C)CC1
  Mtb growth = 0.7%

> CCOC(=O)c1cnc2c(C)c(Cl)ccc2c1N1CCN(CC)CC1
  Mtb growth = i

Pulled by structure from the entries so far (4):
SMILES | Mtb growth
CCCCC(=O)Nc1ccc(C(=O)NCCc2ccccc2)cc1 | 14.6%
Cc1ccc(S(=O)(=O)N(CC(=O)Nc2ccc(F)c(Cl)c2)c2ccccc2Cl)cc1 | 2.6%
S=c1[nH]nc(-c2ccccc2Br)o1 | 1.8%
Cc1ccccc1OCc1nnc(SCc2cccc(Cl)c2)n1C | i

Further results:
SMILES | Mtb growth
Cc1cc2oc3c(c(=O)c2cc1C)C(c1ccc(Cl)cc1)N(Cc1ccc(F)cc1)C3=O (centres undefined) | i
Clc1cc(Br)ccc1OCCN1CCCC1 | i
CC(C)CNS(=O)(=O)c1ccc(OCC(=O)NC(C)(C)C)c(Cl)c1 | i
CCOC(=O)N1CCN(C(=O)CN(C2CCCCC2)S(C)(=O)=O)CC1 | i
CC(C)Cc1nnc(NC(=O)CC(C)c2ccccc2)s1 (centres undefined) | i
NC(=O)CSc1nc2ccc(I)cc2c(=O)n1-c1ccccc1 | i
O=C(NCc1ccccc1Br)c1cccs1 | 0.1%
CCc1cc(Br)ccc1NC(=S)NCCOC | i
O=C(Nc1ccccn1)c1ccc(Cl)c(S(=O)(=O)N2CCOCC2)c1 | 1.3%
CCOC(=O)c1ccc(COC(=O)CCC(=O)Nc2ccc(C)cc2[N+](=O)[O-])c(Br)c1 | i
C=CCNC(=O)c1ccccc1NC(=O)CN(c1ccc(OC)cc1OC)S(C)(=O)=O | 0.1%
CSc1nc2c(c(=O)[nH]1)C(c1cccc(Br)c1)C1=C(CC(C)(C)CC1=O)N2 (centres undefined) | i
CCCOc1ccc(C(=O)Nc2ccccc2-c2nc3ccccc3s2)cc1 | i
CCOc1ccccc1N1CCN(C(=O)c2c(C)noc2C)CC1 | i
CC(C)C(=O)Nc1cccc(C(=O)Nc2ccc(S(N)(=O)=O)cc2)c1 | i
Cc1ccc(F)c(N2CC(C(=O)O)CC2=O)c1 (centres undefined) | i
COc1ccc(-c2nc3n(c(=O)c2C#N)CCS3)cc1 | i
Cn1c(=O)c2cn(-c3ccccc3)cc2n(C)c1=O | i
O=C(CSc1nc(-c2ccccc2)cs1)c1cc2ccccc2oc1=O | 4.8%
CCOC(=O)c1c(NC(=O)c2cc(S(=O)(=O)N3CCCC3)ccc2OC)sc(C)c1C | i
C=CCc1c(C)nc(SCC(=O)Nc2ccc(OC)cc2)[nH]c1=O | i
O=C(c1cc2ccccc2oc1=O)n1cccn1 | i
COc1ccccc1NC(=O)CC1COc2ccccc2O1 (centres undefined) | i
CCN(CCO)C(=O)C12CCC(C)(C(=O)C1)C2(C)C (centres undefined) | 1.0%
O=C(Oc1ccc(C(=S)N2CCOCC2)cc1Cl)c1ccc(-c2ccccc2)cc1 | 0.2%
CCN(CC)C(=O)c1sc(NC(=O)c2cc(Cl)ccc2OC)c(C(=O)OC)c1C | i
CN(C)C(=O)CN(C)S(=O)(=O)c1ccc(Cl)cc1 | i
Cc1ccc(NC(=O)NNS(=O)(=O)c2ccc(C(C)(C)C)cc2)cc1C | i
COc1ccc(S(=O)(=O)Nc2ccc(Cl)c(C(F)(F)F)c2)cc1C | 0.3%
CN1CCN(CCCOc2ccc(OCc3ccccc3)cc2)CC1 | i
CN(c1ccccc1)S(=O)(=O)c1cccs1 | 40.9%
COc1cccc(N2C(=O)c3cccc4cc(Br)cc(c34)C2=O)c1 | i
Cc1cc(C)nc(NC(=O)Cc2ccc(Br)cc2)n1 | i
O=C(Nc1ccc(S(=O)(=O)Nc2ccccn2)cc1)c1ccc(-c2ccccc2)cc1 | i
CC(C)(C)c1ccc(OCC(=O)NCCN2CCOCC2)c(Br)c1 | 1.4%
CCn1c(CNC(=O)c2cccc(C)c2)nnc1SCC(=O)Nc1ccc(OC)cc1[N+](=O)[O-] | i
O=C(CCN1C(=O)c2ccccc2C1=O)Nc1ccccc1C(=O)N1CCCCCC1 | i
CCOC(=O)C1CCN(C(=O)c2sc3ccccc3c2Cl)CC1 | 1.0%
COc1ccccc1NC(=O)CN(Cc1ccc(F)cc1)S(=O)(=O)c1ccc(C)cc1 | i
Cc1ccc(CNC(=O)c2ccc(Cl)cc2Cl)cc1 | i
CC(C)c1ccc(NC(=O)C2CCCCC2C(=O)O)cc1 (centres undefined) | i
Cc1ccc(NC(=O)COc2ccccc2C(=O)NCCc2ccccc2)c(Br)c1 | i
C=CCc1cc(C)ccc1OCCCCN1CCOCC1 | 0.9%
CC12CN(C(=O)c3ccc(Cl)cc3)C3(C#N)CC1CCC23C (centres undefined) | i
S=C(NCCc1ccc(Cl)cc1)NC1CCCC1 | i
CCOC(=O)C1CCN(C(=O)CSc2ccc(Cl)cc2)CC1 | i
CCN(CC)C(=O)C(=O)Nc1ccc(Br)cc1 | i
O=C(Nc1ccc(F)cc1)C(=O)NC1CCCC1 | i
CCCCn1nnnc1NCc1cccs1 | 3.2%
CCOC(=O)Cc1csc(NC(=O)/C=C/c2ccc(OC)cc2)n1 | 23.0%

Later entries.
SMILES | Mtb growth
CS(=O)(=O)N(Cc1ccccc1Cl)c1ccc(C(=O)NCCSC2CCCCC2)cc1 | i
Nc1ccc2c(c1)C(=O)N(CCC(=O)O)C2=O | i
O=C(CC(O)(C(F)(F)F)C(F)(F)F)Nc1ccc(Cl)c(Cl)c1 | 1.51µg/mL*
COc1cc(C2CC(=O)NC(SCc3ccccc3Cl)=C2C#N)cc(Br)c1O (centres undefined) | i
CCOC(=O)c1c(NC(=S)Nc2nc(C)cc(C)n2)sc(C)c1-c1ccccc1 | 10.4%
Cc1c(NC(=S)N2CCN(c3ccc(F)cc3)CC2)c(=O)n(-c2ccccc2)n1C | i
COc1cccc(NC(=O)Nc2ccc(Cl)c(Cl)c2)c1 | 3.5%
S=C(Nc1ccc2nc(-c3ccco3)c(-c3ccco3)nc2c1)N1CCSCC1 | 0.2%
O=C(Nc1ccccc1N1CCN(C(=O)c2ccccc2)CC1)c1sc2cc(Cl)ccc2c1Cl | i
COc1cc(C)c(S(=O)(=O)NCc2cccnc2)cc1C | i
CCCOc1ccc(C(=O)NC(=S)Nc2cc(C(=O)O)ccc2C)cc1 | i
O=c1cnnc(N/N=C\c2ccc(C(F)(F)F)cc2)[nH]1 | i
COc1ccc(S(=O)(=O)N(CC(=O)NCc2ccco2)Cc2ccccc2)cc1 | i
COc1ccc(N2CC(=O)N(c3ccccc3)C2=S)cc1 | i
c1ccc(Cc2nnc(-c3ccccc3)o2)cc1 | i
COCCNC(=O)c1c(-c2ccccc2Cl)noc1C | i
CC(C)C1C(C#N)=C(N)Oc2nc(SCc3ccccc3)[nH]c(=O)c21 (centres undefined) | i
CCC(=O)Nc1ccc(N2CCCC2=O)cc1 | 1.7%
Cc1cc(C)c(NC(=O)c2ccc(CN3CCOCC3)cc2)c(C)c1 | i
O=C(O)C1OC2OC3(CCCCC3)OC2C2OC3(CCCCC3)OC12 (centres undefined) | i
O=S(=O)(Cc1ccc(Cl)cc1)NCc1ccco1 | 3.2%
Cc1ccc(SCC(=O)Nc2nnc(CC(=O)N3CCOCC3)s2)cc1 | 2.2%
Cc1ccccc1OCC(=O)Nc1ccc(CC#N)cc1 | i
CCOc1ccccc1NC(=O)CN(c1ccc(C(C)C)cc1)S(C)(=O)=O | i
COc1ccc(Cl)cc1C(=O)Nc1ccc(C)cn1 | i
COc1cc(NS(C)(=O)=O)c(OC)cc1Cl | i
COc1ccc(OC)c(NC(=O)c2sc3cccc(Cl)c3c2Cl)c1 | i
O=C(Cc1ccccc1)Nc1cccc(-c2nc3ncccc3o2)c1 | i
Cc1ccc(S(=O)(=O)NCC(=O)Nc2ccc(Cl)cc2C)cc1 | i
Cc1ccc(S(=O)(=O)N(CC(=O)NCc2ccccc2)CC(=O)NCc2ccccc2)cc1 | i

Continued, overlapping the part above by 3 compounds.
SMILES | Mtb growth
O=C(Cc1ccccc1)Nc1cccc(-c2nc3ncccc3o2)c1 | i
Cc1ccc(S(=O)(=O)NCC(=O)Nc2ccc(Cl)cc2C)cc1 | i
Cc1ccc(S(=O)(=O)N(CC(=O)NCc2ccccc2)CC(=O)NCc2ccccc2)cc1 | i
COC(=O)c1ccc(NC(=O)c2ccc3nccnc3c2)cc1 | i
CC(NC(=O)C1CCN(C(=O)c2ccc(Cl)cc2)CC1)c1ccccc1 (centres undefined) | i
CCOC(=O)c1c(NC(=O)COc2c(C)ccc(C)c2C)sc2c1CCC2 | i
O=C(Nc1ccc(OC(F)(F)F)cc1)c1cnn2cccnc12 | i
O=c1c([N+](=O)[O-])c(N2CCN(CCO)CC2)c2ccccc2n1-c1ccccc1 | i
COc1ccccc1OCc1ccc(C(=O)OC2CCCCC2)o1 | i
CCc1ccccc1NC(=O)CSc1nnc(-c2ccc(Cl)cc2)n1CC | i
COc1ccc(C)cc1NC(=O)CN(c1cc(Cl)ccc1Cl)S(C)(=O)=O | i
O=C(Nc1ccc2c(c1)OCCO2)c1ccncc1 | i

Source: PubChem

Not all compounds are listed (hit frequency here may not be typical).
